Compound activity (PubChem BioAssay)
YopH PTP inh: blocks Yersinia enterocolitica YopH tyrosine phosphatase. fluorescence Ex485/Em525. inhibition, %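 (about 10 µM by stock and volumes)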. 140,000 tested, 0.16% active. AID 898;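 active = inhibition of 50% or more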;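 note: controls were vehicle for no effect and minimum signal wells for full effect; inactives centre near -20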
Mtb growth: M. tuberculosis H37Rv growth inhibitors, H37Rv strain (AID 1626); one-dose inhibition, % at 10 µM; IC50 in µM for titrated hits; 220,000 tested, 0.95% active; M. tuberculosis H37Rv growth inhibition; higher % means a stronger effect;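 active = confirmed in a dose series; inconclusive = inhibition above 80% but not taken into the dose series; inactive = below 80% or under 30% at every dose of the series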;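 note: bacteria incubated seven days before Alamar blue readout; 0% = bacteria only wells and 100% = bacteria with antibiotic wells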
Arbovirus inh: blocks arbovirus infection; arbovirus infection cell-based antiviral screen; 200,000 tested, 0.37% active; inhibition, % at 10 µM; AID 1251;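 active = inhibition from about 30%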;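 note: bluetongue infection of BSR cells; cell survival read as ATP light after 72 h; 0% = infected wells without compound and 100% = uninfected wells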
Mtb bLac sens: beta-lactam sensitization of Mtb H37Rv. M. tuberculosis H37Rv growth with meropenem, percent inhibition; hits of this screen are not shown here. inhibition, % at 25 µM. 330,000 tested, 0.27% active;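 active = about 74% or more and at least 40 points above the plate without the antibiotic, then above 30% in a dose series; inconclusive = first-round hits that could not be retested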;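 note: growth measured after seven days incubation then overnight dye step; 0% = bacteria only wells and 100% = bacteria with antibiotic; twin plates without the antibiotic show which effects depend on it; some results filed as inactive read as strong as hits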
RecA splice inh: blocks M. tuberculosis RecA intein splicing; P9WHJ3; cell-free RecA intein splicing, fluorescence; inhibition, %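 (about 9 µM by stock and volumes)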; 290,000 tested, 0.75% active; in the data active = inhibition above about 30%; inconclusive = no clear call, values can overlap the other calls;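 note: 0% = vehicle wells and 100% = reference inhibitor control wells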
Target sequence (P9WHJ3 whole entry, looked up, canonical isoform): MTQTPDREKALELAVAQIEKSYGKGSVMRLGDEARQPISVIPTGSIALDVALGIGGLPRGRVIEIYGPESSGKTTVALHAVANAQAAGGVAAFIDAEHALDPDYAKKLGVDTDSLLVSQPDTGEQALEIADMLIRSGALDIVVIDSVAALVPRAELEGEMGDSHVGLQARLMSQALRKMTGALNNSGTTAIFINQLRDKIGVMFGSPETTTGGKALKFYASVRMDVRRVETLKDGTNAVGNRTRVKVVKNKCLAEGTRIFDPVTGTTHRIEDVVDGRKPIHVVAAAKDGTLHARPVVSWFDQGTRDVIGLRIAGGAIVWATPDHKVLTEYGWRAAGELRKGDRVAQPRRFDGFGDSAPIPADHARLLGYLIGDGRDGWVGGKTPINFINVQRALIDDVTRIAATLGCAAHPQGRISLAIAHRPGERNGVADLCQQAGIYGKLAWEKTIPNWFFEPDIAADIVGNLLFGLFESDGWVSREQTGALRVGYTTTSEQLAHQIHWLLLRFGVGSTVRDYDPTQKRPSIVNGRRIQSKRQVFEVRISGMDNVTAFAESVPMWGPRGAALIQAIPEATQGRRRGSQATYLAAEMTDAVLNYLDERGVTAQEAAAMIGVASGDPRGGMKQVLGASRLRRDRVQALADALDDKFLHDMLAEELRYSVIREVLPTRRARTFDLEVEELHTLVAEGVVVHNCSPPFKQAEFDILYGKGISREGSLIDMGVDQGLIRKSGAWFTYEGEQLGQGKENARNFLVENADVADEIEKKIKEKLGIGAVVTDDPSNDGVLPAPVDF
Arbovirus inh repeat: recorded beside Arbovirus inh, whose call it bears; inhibition, %; measured here: 10K subset replicate screen; many hits read low in the repeat;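 first of two repeat runs on a subset; 0% = infected and 100% = uninfected wells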
Starred values were filed as active, the others as inactive; ? = inconclusive; nt = no result given.

SMILES | YopH PTP inh | Mtb growth | Arbovirus inh | Mtb bLac sens | RecA splice inh | others
O=C(N/C(=C/c1cccc([N+](=O)[O-])c1)C(=O)N1CCCCCC1)c1cccs1 | -4 | -1% | -6 | 0 | 5.8
CCCCOc1ccc(C(=O)Oc2cc(C)[nH]c(=O)c2[N+](=O)[O-])cc1 | nt | nt | nt | 1 | -1.9
Cc1cccc(/N=C/c2ccccn2)n1 | nt | nt | nt | -1 | 2.0
COc1ccccc1Nc1ncnc2c1cnn2-c1cccc(C)c1 | 9 | 2% | -4 | 4 | -1.8
CC(C)OCCCNC(=O)Nc1cccc2ccccc12 | nt | -4% | -4 | -2 | 3.2
O=[n+]1c2c(n([O-])c3cc(Cl)ccc31)CCCC2 | -20 | 4% | 0 | -5 | -2.9
COc1ccc(CNC(=O)C2CCCN(S(=O)(=O)c3ccc(F)cc3)C2)cc1 (stereo not drawn) | nt | nt | nt | ? | -1.7
O=C(CCN1CCN(Cc2ccccc2)CC1)Nc1ccccc1Cl | -22 | 1% | 5 | -11 | -1.0
CCOc1ccc(NC(=O)CC2C(=O)N(c3ccc(OC)c(Cl)c3)C(=S)N2C2CC2)cc1 (stereo not drawn) | nt | nt | nt | ? | -0.8
CCC1C(=NO)C(CC)C(c2ccccc2)NC1c1ccccc1 (stereo not drawn) | nt | 10% | -33 | -4 | 2.6
COC(=O)c1cc(CNC(=O)c2cccc(Cl)c2)ccc1OC | -22 | -1% | -1 | 1 | 0.6
COc1cc2c(cc1OC)CC(=O)NC=C2 | nt | 5% | -3 | -5 | -0.9
CCCN1C(=O)/C(=C/c2ccc(C)s2)NC1=S | -29 | -3% | 2 | 5 | 9.0
Cn1c(=NC(=O)c2cccc([N+](=O)[O-])c2)sc2ccccc21 | nt | -1% | -7 | 0 | 1.3
O=C(CCSCc1ccccc1F)NCc1ccc(F)cc1 | nt | nt | nt | 2 | 1.7
Cc1cccc(NC(=O)CN2NS(=O)(=O)c3ccccc3C2=O)c1 | -6 | -6% | 17 | -1 | -3.2
CC(C)c1ccc(-c2nc(N3CCOCC3)[nH]c(=O)c2C#N)cc1 | 4 | -5% | 26 | 6 | -1.0
CC(C)N(Cc1nc(-c2ccccc2)no1)C(=O)COc1ccccc1 | -36 | 8% | 12 | -2 | 1.9 | Arbovirus inh repeat=13
CN(C)Cc1c(O)c(Cl)cc2c3c(c(=O)oc12)CCCC3 | -36 | 3% | 32* | 12 | -149
Clc1ccc(OCCN2CCCCC2)c(Cl)c1 | -31 | 0% | -8 | -4 | 0.2

Nothing new here: 15 of the compounds above.
SMILES | YopH PTP inh | Mtb growth | Arbovirus inh | Mtb bLac sens | RecA splice inh | others
O=C(N/C(=C/c1cccc([N+](=O)[O-])c1)C(=O)N1CCCCCC1)c1cccs1 | -4 | -1% | -6 | 0 | 5.8
CCCCOc1ccc(C(=O)Oc2cc(C)[nH]c(=O)c2[N+](=O)[O-])cc1 | nt | nt | nt | 1 | -1.9
Cc1cccc(/N=C/c2ccccn2)n1 | nt | nt | nt | -1 | 2.0
COc1ccccc1Nc1ncnc2c1cnn2-c1cccc(C)c1 | 9 | 2% | -4 | 4 | -1.8
CC(C)OCCCNC(=O)Nc1cccc2ccccc12 | nt | -4% | -4 | -2 | 3.2
O=[n+]1c2c(n([O-])c3cc(Cl)ccc31)CCCC2 | -20 | 4% | 0 | -5 | -2.9
COc1ccc(CNC(=O)C2CCCN(S(=O)(=O)c3ccc(F)cc3)C2)cc1 (stereo not drawn) | nt | nt | nt | ? | -1.7
O=C(CCN1CCN(Cc2ccccc2)CC1)Nc1ccccc1Cl | -22 | 1% | 5 | -11 | -1.0
CCOc1ccc(NC(=O)CC2C(=O)N(c3ccc(OC)c(Cl)c3)C(=S)N2C2CC2)cc1 (stereo not drawn) | nt | nt | nt | ? | -0.8
CCC1C(=NO)C(CC)C(c2ccccc2)NC1c1ccccc1 (stereo not drawn) | nt | 10% | -33 | -4 | 2.6
COC(=O)c1cc(CNC(=O)c2cccc(Cl)c2)ccc1OC | -22 | -1% | -1 | 1 | 0.6
COc1cc2c(cc1OC)CC(=O)NC=C2 | nt | 5% | -3 | -5 | -0.9
CCCN1C(=O)/C(=C/c2ccc(C)s2)NC1=S | -29 | -3% | 2 | 5 | 9.0
Cn1c(=NC(=O)c2cccc([N+](=O)[O-])c2)sc2ccccc21 | nt | -1% | -7 | 0 | 1.3
O=C(CCSCc1ccccc1F)NCc1ccc(F)cc1 | nt | nt | nt | 2 | 1.7

The list continues:
SMILES | YopH PTP inh | Mtb growth | Arbovirus inh | Mtb bLac sens | RecA splice inh | others
CN(Cc1ccc(OCC(O)CN2CCCCC2)cc1)Cc1ccnc2ccccc12 (stereo not drawn) | nt | 2% | 8 | nt | 9.8
Cc1ccc(-n2nnnc2SCC(=O)NNC(=O)c2ccc([N+](=O)[O-])cc2)cc1 | nt | -5% | -4 | 31 | 2.6
COc1ccc(N(CC(=O)N2CCCCC2)S(=O)(=O)c2ccccc2)c(OC)c1 | 14 | 0% | 1 | 3 | 1.3
O=C(NC(Cc1ccccc1)C(=O)NC1CC1)OCc1ccccc1 (stereo not drawn) | nt | 0% | 1 | 0 | 0.6
O=S(=O)(c1ccc(Cl)cc1)N1CCC2(CC1)OCCO2 | nt | nt | nt | 4 | 2.0
Cn1cccc1Cc1nnc(SCC(=O)Nc2ccc3c(c2)OCO3)n1-c1ccc(F)cc1 | -26 | -3% | -23 | 3 | 5.3 | Arbovirus inh repeat=-16
COc1ccc(N(C(=O)Cn2nnc(-c3ccc(C)o3)n2)C(C(=O)NC2CCCC2)c2ccncc2)cc1 (stereo not drawn) | nt | nt | nt | 1 | 1.0
O=C(CN(CC1CCCO1)C(=O)CNS(=O)(=O)c1ccc(Cl)cc1)NCc1ccccc1 (stereo not drawn) | nt | nt | nt | 0 | 6.4
Cc1ccc(NC(=O)COC(=O)c2ccccc2Nc2ccccc2)cc1 | -19 | 3% | 3 | -2 | -6.5
COC(=O)C1=C(N)Oc2cc(C)[nH]c(=O)c2C1c1ccncc1 (stereo not drawn) | 1 | -9% | 6 | -5 | -0.1
COc1cccc(-n2c(=O)c3ccccc3n3c(=S)[nH]nc23)c1 | nt | nt | nt | 1 | 0.2
Cc1cc(C)c2nc(N3CCC(C(=O)NCc4ccccn4)CC3)sc2c1 | nt | 8% | 4 | 12 | -1.0
CCOC(=O)c1ccccc1NC(=O)CC(C)CC(=O)O (stereo not drawn) | -8 | 6% | -1 | -8 | -3.6
CCN1C(=O)C(O)(CC(=O)c2cccc(-n3cccc3)c2)c2ccccc21 (stereo not drawn) | nt | 0% | -11 | -9 | 2.5
CCS(=O)(=O)Nc1c(C(=O)O)[nH]c2ccccc12 | -46 | -8% | -4 | 3 | 0.9
O=C(COC(=O)c1cc(=O)[nH]c(=O)[nH]1)Nc1cccc(S(=O)(=O)N2CCCCC2)c1 | nt | 5% | 6 | -6 | -2.7
CN(C)S(=O)(=O)c1ccc(C(=O)OCC2CC2(Cl)Cl)cc1 (stereo not drawn) | nt | nt | nt | 82 | -0.2
O=C(CCNC(=O)C1CCN(S(=O)(=O)c2ccccc2)CC1)NCCc1ccc(Cl)cc1 | nt | nt | nt | 2 | 0.4
O=C(NC1CC(=O)N(c2ccc3c(c2)OCCO3)C1)N1CCCCC1 (stereo not drawn) | nt | nt | nt | 0 | 2.4
O=C(OCC#CCSc1nnc(-c2ccc(Br)cc2)o1)c1ccco1 | -21 | ? | -2 | 100 | 0.9
COc1ccc(Cl)cc1CN1CCOCC1 | nt | -3% | nt | -7 | 1.9
COc1cccc(C(=O)Nc2ccccc2F)c1 | nt | -8% | -7 | 3 | -4.0
CC(C)(C)CC(=O)Nc1ccc(S(=O)(=O)N2CCCC2)cc1 | nt | 6% | 3 | -2 | -3.3
COc1ccc(C(O)c2ccccc2OP(=O)(N(C)C)N(C)C)cc1 (stereo not drawn) | -25 | -2% | 6 | -5 | 0.2
O=C(NCC1(O)CCCCC1)C1CCC(=O)N(CCc2ccccc2)C1 (stereo not drawn) | nt | nt | nt | -6 | -2.3
Cc1ccc(S(=O)(=O)Cn2nnnc2C(c2ccc(F)cc2)N2CCCCC2)cc1 (stereo not drawn) | -26 | -5% | 0 | -3 | -0.3
COCCNC(=O)/C(C#N)=C/c1cn(CC(=O)NCc2ccco2)c2ccccc12 | nt | -8% | -2 | -7 | 1.2
CCOC(=O)c1csc(N/N=C2\CCCc3ccccc32)n1 | nt | nt | nt | 22 | 11
Oc1ccc(C(=S)N2CCCCCC2)cc1 | -27 | 1% | -5 | -2 | 3.5
CCOc1ccc(CCNC(=O)c2c(C)nn(-c3ccccc3)c2Cl)cc1OCC | nt | nt | nt | ? | 2.9
COc1ccc(-c2nc(CCNC(=O)c3ccco3)cs2)cc1OC | -15 | -7% | 2 | -7 | 8.6 | Arbovirus inh repeat=14
CCOC(=O)CN1C(=O)S/C(=C/c2ccc(OCc3ccc(C(=O)O)cc3)cc2)C1=O | nt | nt | nt | 6 | 6.5
CCc1ccc2nc(NC(=O)c3ccc4c(=O)[nH]c(CN5CCOCC5)nc4c3)sc2c1 | -38 | 0% | -7 | 12 | -2.5
Cc1ccc(CNCc2cccnc2)cc1 | -17 | -4% | -4 | -5 | -0.4
C=CCN(CC=C)CCOc1ccccc1F | -40 | 3% | 0 | -3 | -0.1
COc1ccc2c(CC(=O)OCC(=O)c3ccc(F)cc3)coc2c1 | -41 | -1% | 6 | -2 | nt
Cc1ccc2oc(=O)cc(CN3CCN(C/C=C/c4ccccc4)CC3)c2c1 | nt | 79% | nt | 91 | 2.2
Cc1c(NC(=O)/C(=C/c2cccs2)NC(=O)c2ccccc2)c(=O)n(-c2ccccc2)n1C | nt | 0% | 2 | -4 | 1.0
CCOC(=O)c1cnc(SCC(=O)c2ccc3c(c2)OCCO3)nc1N | -49 | -8% | -1 | 0 | -0.3
CCN(CC)CCNC(=O)c1ccc(NC(=O)c2ccc(Cl)c(S(=O)(=O)N3CCCCCC3)c2)cc1 | nt | 10% | nt | 3 | 3.3
O=C(CSc1ccccc1)Nc1cccc(NC(=O)c2ccco2)c1 | -6 | -10% | -8 | -1 | 1.9
CNC(=O)c1c(NC(=O)c2ccc(S(=O)(=O)N3CC(C)OC(C)C3)cc2)sc2c1CCN(C(C)C)C2 (stereo not drawn) | nt | nt | nt | 1 | -2.4
CCC1=NN(C(=O)c2ccccc2Br)C(O)(c2ccc(Br)cc2)C1 (stereo not drawn) | nt | 7% | -6 | -2 | nt
Cc1ccc(C(C)n2cc(C(=O)NCCN3CCN(C)CC3)nn2)cc1 (stereo not drawn) | 5 | -7% | -5 | -7 | 2.4
Cc1cc2oc3c(c(=O)c2cc1C)C(c1ccc(C(C)C)cc1)N(CCCN1CCOCC1)C3=O (stereo not drawn) | -31 | nt | -1 | -2 | 5.1 | Arbovirus inh repeat=0
CCN1CCN(Cc2cc(Br)cc(Br)c2O)CC1 | -18 | 1% | 6 | -5 | -1.0
CCOc1ccc(C2C(=O)N(C3CCCCC3)CC(=O)N2CC2CCCO2)cc1OC (stereo not drawn) | -25 | nt | 7 | -5 | -4.7
O=C(COC(=O)c1ccco1)NCCNC(=O)COC(=O)c1ccco1 | nt | nt | nt | -5 | -3.4
COC(=O)c1cc(NC(=O)c2cc3ccccc3o2)cc(C(=O)OC)c1 | nt | nt | nt | 40 | 0.7
CS(=O)(=O)c1ccc(C(=O)OCC(=O)NC23CC4CC(CC(C4)C2)C3)cc1[N+](=O)[O-] | -14 | 6% | -18 | -1 | 32*

(continued)
SMILES | YopH PTP inh | Mtb growth | Arbovirus inh | Mtb bLac sens | RecA splice inh | others
O=C1NC(=O)N(c2ccc3c(c2)OCO3)C(=O)/C1=C/c1cccs1 | nt | -10% | 16 | -4 | -0.6
COc1ccc(N2C(=NC(=O)C3CCCCC3)SC3CS(=O)(=O)CC32)cc1Cl (stereo not drawn) | nt | nt | nt | -4 | 1.9
CC(C)CC(NC(=O)c1ccc(C#CC(C)(C)O)s1)C(=O)O (stereo not drawn) | nt | -1% | 1 | -6 | 5.3
Cc1nn(Cc2noc(C(=O)NCc3ccccn3)n2)c(C)c1Br | nt | nt | nt | 5 | 0.1
CSc1ccccc1-c1nnc(-c2ccc(Cl)c(Cl)c2)o1 | -42 | 0% | -9 | -8 | -1.3
COC(=O)c1c(-c2ccc(C)cc2)csc1N | -27 | 5% | -7 | 5 | 9.0 | Arbovirus inh repeat=-6
COc1ccc(NC(=S)NC(NC(C)=O)C(Cl)(Cl)Cl)c([N+](=O)[O-])c1 (stereo not drawn) | -3 | -7% | -2 | -6 | 0.3

An excerpt; rates above refer to the full screens.
